Vaccinia mCherry = vaccinia inhibition (mCherry reporter) | Vaccinia virus mCherry reporter infection, fluorescence; about a quarter of the inactives have no number | Potency, µM (series often up to 36.5 µM), inactives show top-dose activity change, negative = inhibition, usual class: inhibitors | hit rate 0.63% among 310,000 | AID 720579; active = well fitted inhibition curve with a large enough effect; inconclusive = small, poorly fitted or top-dose-only effect; inactive = no such curve, though single readings can be large or run the other way; tested in A549 cells; note: nearly all actives have a fitted effect of over 35% in size; inactives centre near -10
Vaccinia Venus = inhibitors of vaccinia virus (Venus reporter); Vaccinia virus Venus reporter expression, fluorescence; hit rate 0.46% among 330,000; AID 720580; Potency, µM (titrated, usually from 36.5 µM), for inactives: top-dose activity change, negative = inhibition, actives largely listed as inhibitors; active means well fitted inhibition curve with a large enough effect; inconclusive means small, poorly fitted or top-dose-only effect; inactive means no such curve, though single readings can be large or run the other way; tested in A549 cells; note: nearly all actives have a fitted effect of over 30% in size; inactives centre near -10
Numbers without * were called inactive; i = inactive; ? = inconclusive; · = not tested or not shown; & = joins results of further samples; [ ] = dose if it differs, or a comment. % is set by controls: 0 for no effect and ±100 for the full control effect; potency is the fitted concentration of half-maximal effect.

SMILES | Vaccinia mCherry | Vaccinia Venus
COCc1cc(CNC(=O)C2CCC(=O)N(Cc3cccc(OC)c3)C2)[nH]n1 (stereo not drawn) | -2% | 1%
O=C(O)c1cc(-c2ccc3c(c2)OCO3)nc2ccc(Br)cc12 | i | -15%
CCC(Sc1ncnc2sc(C)c(C)c12)C(=O)OC (stereo not drawn) | -17% | -14%
Fc1ccc(OCCCCCn2ccnc2)cc1 | -27% | -3%
CC(=O)OC[C@@H]1CN(Cc2ccccc2)C[C@H](n2cnc3c(NCc4ccc(F)cc4)ncnc32)O1 | ? | -28%
Cc1c(NC(=O)CN2C(=O)NC(C)(c3ccc(Cl)cc3)C2=O)c(=O)n(-c2ccccc2)n1C (stereo not drawn) | -22% | -13%
CCCCNC(=O)C1c2ccccc2OCC(=O)N1Cc1ccccn1 (stereo not drawn) | 16% | 10%
COc1cccc(N(C(=O)c2ccco2)c2nc(-c3sc(NC(=O)c4ccco4)nc3C)cs2)c1 | ? | ?
Cc1c(O)cnc2nn(-c3ccccc3)c(=N)n12 | i | 2%
Cc1ccc(S(=O)(=O)N2CCOCC2)cc1C(=O)N1CCCCCC1 | -3% | -4%
CCc1ccc(-c2nn(Cc3ccccc3)cc2C=O)cc1 | i | -9%
O=C(CN1CCOCC1)n1c2c(c3ccccc31)CCCC2 | -10% | -7%
CCn1c(C2CC(=O)N(Cc3ccccc3)C2)nc2ccccc21 (stereo not drawn) | -8% | -6%
COC(=O)c1cc(Sc2c(Cl)cccc2Cl)ccn1 | -24% | -29%
Cc1ccc(S(=O)(=O)N(C)CC(=O)OCC(=O)c2c(N)n(C)c(=O)n(C)c2=O)cc1 | ? | -3%
C=CC12C=CC=CN1C(C(=O)OC)=C(C(=O)OC)C(C(=O)OC)=C2C(=O)OC (stereo not drawn) | -22% | -16%
NS(=O)(=O)c1cccc(NC(=O)c2cccs2)c1 | 1% | -1%
CCc1cccc(Oc2nn[nH]n2)c1 | -16% | -8%
O=C(O)c1c(NC(=O)N2CCCC2)sc2c1CCCC2 | -27% | -15%
O=C1OCc2cc(NC(=O)C3COc4ccccc4O3)ccc21 (stereo not drawn) | -8% | -6%

Nothing new here: entries from further up.
SMILES | Vaccinia mCherry | Vaccinia Venus
COCc1cc(CNC(=O)C2CCC(=O)N(Cc3cccc(OC)c3)C2)[nH]n1 (stereo not drawn) | -2% | 1%
O=C(O)c1cc(-c2ccc3c(c2)OCO3)nc2ccc(Br)cc12 | i | -15%
CCC(Sc1ncnc2sc(C)c(C)c12)C(=O)OC (stereo not drawn) | -17% | -14%

(next part)
SMILES | Vaccinia mCherry | Vaccinia Venus
CCOc1ccc(NC(=O)c2cnn3c2NC(C)=C(C(=O)Nc2ccc(Cl)cc2)C3c2ccc(OC)c(OC)c2)cc1 (stereo not drawn) | -8% | -11%
CC(OC(=O)c1ccc2c(=O)n3c(nc2c1)CCC3)C(N)=O (stereo not drawn) | -6% | -4%
CNc1c(-n2cc(C(=O)OC)c(C(=O)OC)c2C(=O)OC)c(=O)n(C)c(=O)n1C | i | -8%
COc1cc(CN2CCC(C(=O)NC(C)(C)C)CC2)ccc1OCc1ccccc1 | -4% | -12%
O=C(c1ccc2c(=O)n(Cc3ccccc3Cl)c(=S)[nH]c2c1)N1CCOCC1 | i | -5%
O=C(CN(CC1CCCO1)C(=O)CNS(=O)(=O)c1ccc(Cl)cc1)NCc1ccco1 (stereo not drawn) | -6% | -7%
O=C(Nc1ccc2c(c1)C(=O)c1ccccc1-2)c1ccccc1 | -13% | 4%
NC1CCCCC1N=Cc1c(O)n(CCc2ccc(F)cc2)c(=O)[nH]c1=O (stereo not drawn) | · | -8%
COC(=O)CN1C(=O)N/C(=C/c2ccccc2OC)C1=O | i | -7%
Cc1cc(OCC(=O)NCC2CCC(C(=O)O)CC2)c2c(C)c(C)c(=O)oc2c1 (stereo not drawn) | -9% | -1%
C/C(CC(=O)Nc1cccc2c1CCCC2)=N\NC=O | -3% | -16%
CCOC1CS(=O)(=O)CC1OCC (stereo not drawn) | -5% | -3%
CC(=O)/C=C/c1ccccc1 | i | -5%
COC(=O)c1ccc([C@H]2Nc3ccc(S(=O)(=O)Nc4cccc(C)c4)cc3[C@H]3C=CC[C@H]32)cc1 | -9% | -10%
O=C(Cn1cc([N+](=O)[O-])cn1)NCc1cc2ccccc2[nH]1 | -11% | -5%
O=[N+]([O-])c1ccc(N/N=C/c2cccnc2)cc1 | i | -9%
CCc1ccc(CNC(=O)CN2C(=O)COc3ccccc32)cc1 | i | -8%
O=C(/C=C(\O)c1ccccc1)c1ccccc1O | -12% | -16%
COP(=O)(C#Cc1ccccc1)C(O)c1ccc(Br)cc1 (stereo not drawn) | -21% | -11%
CCC(Sc1nc2cc3c(cc2c(=O)n1CCCC(=O)NCc1ccc(OC)cc1)OCO3)C(=O)NCCCOC (stereo not drawn) | -4% | -8%

Molecules above containing an aryl thioether with sulfur outside any ring:
SMILES | Vaccinia mCherry | Vaccinia Venus
CCC(Sc1ncnc2sc(C)c(C)c12)C(=O)OC (stereo not drawn) | -17% | -14%
COC(=O)c1cc(Sc2c(Cl)cccc2Cl)ccn1 | -24% | -29%
CCC(Sc1nc2cc3c(cc2c(=O)n1CCCC(=O)NCc1ccc(OC)cc1)OCO3)C(=O)NCCCOC (stereo not drawn) | -4% | -8%

Continuation:
SMILES | Vaccinia mCherry | Vaccinia Venus
O=C(CCC(=O)c1ccc(F)cc1)OCc1nnc(-c2ccc([N+](=O)[O-])cc2)o1 | -14% | -2%
Nc1nc(CSc2n[nH]c(-c3ccccc3)n2)nc(Nc2ccccc2)n1 | ? | -28%
CC1CCCC(NC(=O)COC(=O)Cc2ccsc2)C1C (stereo not drawn) | -13% | -4%
O=[N+]([O-])c1ccc(Oc2ccc(F)cc2)c2ccncc12 | · | -8%
O=C(OCc1cn([C@@H]2C[C@H](c3ccc(Cl)cc3)N(Cc3cccs3)C[C@H]2O)nn1)c1ccccc1 | i | -15%
COc1ccc2c(c1OC)C(=O)N1C2SC[C@H]1C(=O)NC1CC1 (stereo partly drawn) | -4% | 0%
CC(C)NC(=S)Nc1ccc(Oc2ccccc2)cc1 | · | -7%
CCN(CC)S(=O)(=O)c1ccc(O)c(NC(=O)COc2ccc(S(=O)(=O)N3CCOCC3)cc2)c1 | -1% | -24%
Cc1cc(-c2ccc(/C=N/n3cnnc3)o2)ccc1Cl | i | -8%
COc1ccc(C(=Cc2ccccc2[N+](=O)[O-])C(=O)O)cc1 | -21% | -12%
Cc1nc(-n2nnc(CO)c2CO)nc2c1CCC2 | i | 6%
CC(Nc1ccc2c(c1)OCCO2)C(=O)N1c2ccccc2CC1C (stereo not drawn) | -20% | -14%
CC1CN(C(=O)c2c(Br)cnn2C)CC(C)O1 (stereo not drawn) | i | 1%
COc1ccc(-n2ncc3c2CC(C)(C)CC3NC(=O)c2ccoc2C)cc1 (stereo not drawn) | -14% | -8%
Nc1ncnc2c1cnn2C1CCCCC1 | -25% | -16%
Cc1ccc(C2c3[nH]c4ccccc4c3C[C@H]3C(=O)N(c4ccccc4C(=O)N4CCC[C@@H]4C(=O)O)C(=O)N23)cc1 (stereo partly drawn) | 1% | -6%
O=C(COc1ccc(Cl)cc1Cl)N/N=C/CCc1ccccc1 | -8% | -6%
CC(C)(C)OC(=O)C[C@H]1C/C=C\C[C@H](CC(=O)NCCO)C(=O)NC[C@H](c2ccccc2)OC1=O | -11% | -7%
CCN(CC)C(=O)c1c2c(nc3ccccc13)-c1ccccc1CC2 | -4% | -10%
Cc1ccc(NC(=S)/C(=C(\[O-])c2ccc(F)cc2)[n+]2ccccc2)cc1 | 0% | 9%
CCOC(=O)C(=O)Nc1ccc(S(=O)(=O)Nc2nccc(C)n2)cc1 | -20% | 6%
CC1(c2ccccc2)CCC(=O)NC1 (stereo not drawn) | -21% | -9%
CN1C(=O)c2ccccc2NC(=O)[C@]12O[C@@H]2c1ccccc1 | -12% | 1%
CN(C)Cc1c(O)ccc2c(-c3ccccc3)cc(=O)oc12 | -22% | -17%
CC[C@@]1(C(=O)OC)N[C@H](CN(C)C(=O)Nc2ccc(Cl)cc2)[C@@H]2C(=O)N(Cc3ccccc3)C(=O)[C@@H]21 | -1% | -9%
O=C(/C=C/c1ccc(Cl)c(Cl)c1)NC1=NCCS1 | -3% | 5%
O=C(C1CCN(C2CC(=O)N(c3cccc(Cl)c3)C2=O)CC1)N1CCCCCC1 (stereo not drawn) | · | -17%
CC[C@@H]1CC=C[C@H]2[C@H]1C(=O)N(Cc1ccccc1)[C@H]2c1ccc(C(F)(F)F)cc1 | i | -22%
O=[N+]([O-])c1nn(-c2ccccc2)n(O)c1=NCCc1ccccc1 | -23% | ?
Cc1cccc(C)c1NC(=O)c1oc2c(c1C)-c1nn(Cc3ccccc3)cc1CC2 | ? | ?
CCN(CC)C(=O)c1cccc(-c2csc(C(C)(O)c3ccc(F)c(F)c3)n2)c1 (stereo not drawn) | ? | ?
COCCN(C(=O)COC(=O)CCOc1cccc(C)c1)c1c(N)n(Cc2ccccc2)c(=O)[nH]c1=O | -3% | -19%
Cc1ccc(-n2cnc3c(=O)[nH]cnc32)cc1[N+](=O)[O-] | -13% | -14%
O=C(Nc1ncc(Cc2ccccc2)s1)c1cccs1 | · | ?
Cc1onc(-c2c(Cl)cccc2Cl)c1C(=O)Nc1nccs1 | i | -17%
O=C(NCC(O)CO)c1csc(Nc2cccc3ccccc23)n1 (stereo not drawn) | -8% | 14%
CCc1ccc(-n2nnc(-c3nc(-c4ccccc4)no3)c2C)cc1 | -1%[7.34 µM] | -6%[7.34 µM]
O=C(NCC(O)c1ccc([N+](=O)[O-])cc1)c1cccc(S(=O)(=O)N2CCOCC2)c1 (stereo not drawn) | -14% | -10%
O=C(CN1CCN(Cc2ccccc2)CC1)N1N=CCC1c1ccccc1 (stereo not drawn) | -8% | -6%
CC(=O)Nc1ccc(NC(=O)CCOc2ccccc2C)cc1 | -19% | -4%
CCOc1cccc(C2c3[nH]c4ccccc4c3CCN2C(=O)c2ccccc2F)c1 (stereo not drawn) | -18% | -17%
COc1ccc2c(c1)CCc1c(C(=O)Nc3c(C)nn(Cc4ccc(Cl)cc4)c3C)noc1-2 | -9%[7.34 µM] | -5%[7.34 µM]
CC1=NOC(=O)/C1=C\c1ccc(-c2ccc(Br)cc2C(=O)O)o1 | -1% | 10%
CCCCn1c(N)c(N(CC(C)C)C(=O)CCCc2cccs2)c(=O)[nH]c1=O | -13% | -14%
CCOC(=O)c1ccc(NC(=S)N2CCSC2c2ccc(OC)cc2)cc1 (stereo not drawn) | -5% | -11%
OC[C@H]1O[C@@H](c2nc(-c3ccc(Br)cc3)no2)C[C@@H]1O | 10% | -4%
CC(C)CN1CN(Cc2ccco2)CNC1=S | i | -6%
CSCCC(NS(=O)(=O)c1ccc(C)cc1)C(=O)NC1CCCCC1 (stereo not drawn) | i | 0%
O=C(Nc1ccccc1)c1ccc2c(c1)OCO2 | · | 14%
COC(=O)Cn1c(=NC(=O)c2ccc(OC)cc2)sc2cc(OC)ccc21 | -16% | -13%
CCN1CCN(CCNC(=O)c2ccc3c(c2)NC(=O)/C(=C\c2cccc(Cl)c2)S3)CC1 | ? | ?
Cc1ccc(C(C)C)cc1OCC(=O)NNC(=O)Nc1ccccc1 | -4% | -26%
COc1cccc(NC(=O)CSc2nnc(Cn3nnc4ccccc43)n2C)c1 | · | -7%
Cc1ccccc1NC(=O)Nc1nnc(CC(=O)NCc2ccccc2)s1 | -16% | -3%
NC(=O)C1CCCN(S(=O)(=O)c2ccc3ccccc3c2)C1 (stereo not drawn) | i | -22%
COc1ccc(CCNC(=O)CCCCCN2C(=O)[C@@H]3Cc4ccccc4CN3C2=O)cc1OC | -10% | -5%
NS(=O)(=O)c1ccc(N2C(=O)C3C4CC(C(Br)C4Br)C3C2=O)cc1 (stereo not drawn) | i | -7%
COc1ccc(Cl)cc1C(=O)NNC(=O)C1CCCO1 (stereo not drawn) | i | 5%
COc1ccc(CN2[C@@H](CC(C)=O)c3ccc(/C=C/C(C)=O)cc3S2(=O)=O)cc1 | -10%&-17% | -13%&-8%
CC(NC(=O)c1cc2ccccn2n1)c1ccccc1 (stereo not drawn) | -2% | -10%

(next part)
SMILES | Vaccinia mCherry | Vaccinia Venus
Cc1nc(N2CCN(c3ccccn3)CC2)c2c(C)c(C(=O)Nc3ccc(F)cc3F)sc2n1 | -12% | -1%
O=C(O)CCc1nnc2n(Cc3ccc(F)cc3)c(=O)c3ccccc3n12 | 10% | 6%
Cc1nn(CC(=O)Nc2ccc3c(c2)OCO3)c(C)c1[N+](=O)[O-] | i | -1%
O=C1CCCCN1CCc1c[nH]c2ccccc12 | i | -8%
COc1ccccc1N1CCN(S(=O)(=O)c2c(C)sc3ncn(CC(=O)Nc4ccc(C)cc4Br)c(=O)c23)CC1 | -9% | -11%
CSCCC(NC(=O)c1ccccc1Br)C(=O)NCC1CCCCC1 (stereo not drawn) | -21% | -18%
COc1ccc(-c2csc(NS(=O)(=O)c3ccc([N+](=O)[O-])cc3)n2)cc1 | -9% | -5%

Rewritten field by field: entries from further up.
Cc1nn(CC(=O)Nc2ccc3c(c2)OCO3)c(C)c1[N+](=O)[O-]
- Vaccinia mCherry: i
- Vaccinia Venus: -1%
Cc1nc(N2CCN(c3ccccn3)CC2)c2c(C)c(C(=O)Nc3ccc(F)cc3F)sc2n1
- Vaccinia mCherry: -12%
- Vaccinia Venus: -1%
O=C(O)CCc1nnc2n(Cc3ccc(F)cc3)c(=O)c3ccccc3n12
- Vaccinia mCherry: 10%
- Vaccinia Venus: 6%

Full records, quoted from the list. Screens in order: Vaccinia mCherry, Vaccinia Venus
Listed for `CSCCC(NC(=O)c1ccccc1Br)C(=O)NCC1CCCCC1` (stereo not drawn) : -21%, -18%
Listed for `Cc1nc(N2CCN(c3ccccn3)CC2)c2c(C)c(C(=O)Nc3ccc(F)cc3F)sc2n1` : -12%, -1%

Compound activity from PubChem.
